FEN1 inhibitor: blocks human flap endonuclease 1; P39748; Recombinant FEN1 flap cleavage, fluorescence, 15 min; Potency, µM (titrated, usually from 114 µM), without a hit: at the highest dose activity change, negative = inhibition, actives largely listed as inhibitors; hit rate 0.35% among 390,000; AID 588795; also: nearly all actives have a fitted effect of over 65% in size
Target sequence (P39748 whole entry, looked up): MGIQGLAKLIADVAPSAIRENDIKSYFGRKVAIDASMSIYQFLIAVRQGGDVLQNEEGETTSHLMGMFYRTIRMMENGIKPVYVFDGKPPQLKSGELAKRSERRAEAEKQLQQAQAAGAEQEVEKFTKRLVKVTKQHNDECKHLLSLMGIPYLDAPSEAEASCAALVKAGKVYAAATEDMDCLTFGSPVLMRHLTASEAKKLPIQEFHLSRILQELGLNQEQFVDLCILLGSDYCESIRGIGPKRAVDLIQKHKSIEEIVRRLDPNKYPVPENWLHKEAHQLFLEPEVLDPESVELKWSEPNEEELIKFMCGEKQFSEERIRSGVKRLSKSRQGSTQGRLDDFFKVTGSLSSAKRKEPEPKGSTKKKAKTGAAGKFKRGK
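Concentration–response screening of FEN1 (10 nM): 15 min compound preincubation at room temperature, reaction started with 50 nM substrate and read at 0 and 15 min. Corrected, normalized data were fitted by a four-parameter Hill equation.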
N370S GC mod: inhibitors or activators of N370S glucocerebrosidase for Gaucher disease; N370S GC spleen homogenate, 4MU-glucoside fluorescence; Potency, µM (doses to about 59.4 µM), without a hit: top-dose activity change, negative = inhibition, actives largely listed as inhibitors; hit rate 0.092% among 330,000; AID 2101;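 also: 0% = full enzyme activity and -100% = no enzyme basal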
Active calls of the source: *; ? = inconclusive; nt = no result given; & = joins results of further samples. Calls follow the shape of the dose curve; as a rule, active = well fitted curve in the direction sought with a large enough effect; inconclusive = small, poorly fitted or top-dose-only effect, or another doubt; inactive = no such curve, though single readings can be large; an effect the other way counts as inactive or inconclusive. Unless noted, % is scaled to controls: 0 for no effect and ±100 for the full control effect; potency is read from the fitted curve at half-maximal effect.

SMILES	FEN1 inhibitor	N370S GC mod
CCCCNC(=O)C(c1ccc(OCC(=O)OC)c(C(=O)OC)c1)N(CCC1=CCCCC1)C(=O)CCCCCN1C(=O)NC(c2ccc(-c3ccccc3)cc2)C(C(=O)OCc2ccccc2)=C1C (stereo not given)	nt	-11%
N#Cc1c(NC(=O)C2CC=CCC2C(=O)O)sc2c1CCCCCC2 (stereo not given)	-4%	5%
CC(C)NC(=O)CC(=O)N/N=C/c1cccs1	-3%	21%
Cc1ccc(/C=N/NC(=O)CNC(=O)c2ccc(S(=O)(=O)N(C)C)cc2)cc1	-3%	-2%
O=c1[nH]c(NCc2ccccc2)nc2c1CCCC2	0%	0%
Cc1ccnc(NCc2cccc3ccccc23)c1	8%	-18%
COc1ccccc1N1CCN(C(=O)c2cc(-c3ccco3)on2)CC1	-10%	17%
Clc1ccc2nc(C3CCN(Cc4ccccc4)CC3)[nH]c2c1	-7%	11%
CCn1c(SCC(=O)NCCCN2CCCC2=O)nnc1-c1cccc(C)c1	-1%	-2%
COCCNC(=S)N1CCC(c2nc(-c3ccc(F)cc3)no2)CC1	-12%	-5%
COc1ccccc1C(=O)OCCN=C1NS(=O)(=O)c2ccccc21	2%	0%
Cc1cccc2cc(CN(CC3CCCO3)C(=O)c3ccncc3)c(=O)[nH]c12 (stereo not given)	-8%	4%
COc1ccccc1N1CCN(C(=O)CSc2ccccc2)CC1	1%	-10%
C=CC(=O)NCc1ccc(-c2csnn2)cc1	10%	-23%
Cc1ccc2cc(CN(CCCO)S(=O)(=O)c3ccccc3F)c(=O)[nH]c2c1C	-5%	?
COc1ccccc1Nc1ccc(S(=O)(=O)N2CCCCC2)cc1[N+](=O)[O-]	-1%	21%
CCN(CC(=O)NCc1cccs1)C(=O)c1ccc(S(=O)(=O)N(C)C)cc1	4%	0%
COc1ccc(CCNC(=O)c2oc3ccc(OC)cc3c2C)cc1	0%	-9%
O=C(CCC(=O)N1CCN(Cc2ccccc2)CC1)Nc1nnc(C2CCCCC2)s1	-14%	1%
CN(Cc1nc(-c2cccs2)no1)CC1(N2CCOCC2)CCCCC1	7%	-5%
Cc1ccc(C)c(NC(=O)CN(C)C(=O)c2ccccc2OCc2ccccc2Cl)c1	0%	1%
COc1ccccc1CNc1ncnc2c1nnn2Cc1ccccc1	-5%	7%
CN(C(=O)COc1cc(=O)n(C)c2ccccc12)c1ccc(Cl)cc1	-12%	-4%
Cc1nc2ccc(S(=O)(=O)NC(C(=O)N3CCn4c3nc3ccccc34)C(C)C)cc2s1 (stereo not given)	-15%	8%
O=C(c1cc(-c2ccccc2)nc2ccccc12)N1CCN(c2ccccn2)CC1	-2%	-3%
O=C(NCCN1CCNC1=O)C1CCC(=O)N(Cc2ccccc2F)C1 (stereo not given)	10%	-1%
Cc1ccc(S(=O)(=O)c2cc3c(=O)n4cccc(C)c4nc3n(CC3CCCO3)c2=N)cc1 (stereo not given)	nt	10%
Cc1c(NC(=O)c2cccs2)cccc1-c1nc2cc(Cl)ccc2o1	-15%	nt
CCC(C)N(C(=O)CN1C(=O)NC2(CCc3ccccc32)C1=O)C1CCS(=O)(=O)C1 (stereo not given)	-2%	nt
Cc1no[n+]([O-])c1COc1ccccc1/C=C1\NC(=S)NC1=O	12%	20%
CCOC(=O)c1c(CN(CC)CC)oc2cc(Br)c(O)cc12	2%	10%
CCCCC/C=C\C/C=C\C/C=C\C/C=C\CCCCCC(=O)NCC(=O)O	nt	-3%
CCOn1c(=O)c(-c2ccc(Cl)cc2)[n+]([O-])c2ccccc21	-4%	-6%
Cc1ccc(C2C(C(=O)c3cc4ccccc4o3)=C(O)C(=O)N2CCN2CCOCC2)cc1 (stereo not given)	-2%	-16%
CCN(Cc1ccccc1)C(=O)CN1C(=S)NC(C)(C)CC1C (stereo not given)	-1%	?
CCc1ccc(CN2CCC(n3nccc3NC(=O)c3ccc4c(c3)OCO4)CC2)cc1	-2%	-5%
COc1ccc(-c2csc(N=C(N)N)n2)cc1	-9%	-2%
CC(NC(C)c1ccccc1Cl)C(=O)Nc1cccc(S(=O)(=O)N2CCCCC2)c1 (stereo not given)	-1%	nt
CCOC(=O)c1ccc(NC(=O)Cn2nnc(-c3ccccc3C)n2)cc1	-18%	-2%
Cc1nnc(NC(=O)CSc2nnc3ncccn23)s1	4%	4%
Cc1ccc(S(=O)(=O)Nn2c(C)ccc2C)cc1	-8%	-20%
Cc1ccc(C)c2[nH]c(=O)c(CCNC(=O)C(C)C)cc12	nt	6%
CCC(Sc1ncccc1C(=O)OC(C)C)C(=O)NCc1ccco1 (stereo not given)	-11%	5%
COc1ccc(NC(=O)CCNC(=O)c2ccco2)cc1S(=O)(=O)N(C)C	0%	-1%
CCCn1c(=O)c(C(=O)NNC(=O)c2ccccc2Cl)c(O)c2ccccc21	-6%	-1%
O=C(Nc1ccccc1C(=O)O)/C(=C/c1ccc(Cl)cc1Cl)NC(=O)c1ccco1	1%	0%
CCc1ccc2c(CN3CCN(S(=O)(=O)c4cccs4)CC3)cc(=O)oc2c1	-10%	-14%
O=C(Nc1ccncc1)Nc1ccc(F)cc1F	-15%	4%
COC(=O)CC/C(O)=C1\C(=O)CC(C)(C)CC1=NCc1nc2ccccc2[nH]1	7%	7%
C/C(Cn1nnc([N+](=O)[O-])n1)=N\NC(=O)c1ccccc1	10%	-2%
(further entries)
SMILES	FEN1 inhibitor	N370S GC mod
Cc1cccc(OCC(=O)Nc2ccc3c(c2)OCCO3)c1	-17%	-3%
Cn1c(=O)oc2cc(S(=O)(=O)N3CCCC(C(=O)Nc4ccc5c(c4)OCCO5)C3)ccc21 (stereo not given)	-3%	-5%
NS(=O)(=O)c1ccc(NC(=O)c2ccccc2Cl)cc1	-13%	-8%
CN(C)S(=O)(=O)c1cccc(NC(=O)CCNC(=O)Nc2ccccc2)c1	4%	nt
O=C(Nc1ccc(F)cc1)c1cccc(N2CCCS2(=O)=O)c1	0%	nt
N#CC1=C(N2CCCCC2)c2cc3c(n2C1=O)CCCC3	-22%	?
C=CC(C)(C)O[C@@H]1O[C@H](CO)[C@@H](O)[C@H](O)[C@H]1O	2%	nt
CCCc1c(C(=O)N/N=C/C(C)=C/c2ccccc2)nnn1-c1nonc1N	-7%	-1%
CO[C@@]1(NC(=O)CSCC#N)C(=O)N2C(C(=O)O)=C(CSc3nnnn3C)CSC21 (stereo not given in full)	nt	8%
Cc1ccc2oc(=O)c3cnn(CC(=O)NC4CCC(C)CC4)c3c2c1 (stereo not given)	1%	2%
COc1cccc(C(=O)Cn2c(=O)n(CCC(=O)NCC3CCCO3)c(=O)c3cc(OC)c(OC)cc32)c1 (stereo not given)	-4%	3%
CSC(=NC#N)N1CCN(c2ccccn2)CC1	2%	12%
Cc1ccsc1/C=C1/CN(C)Cc2c1nc1ccccc1c2C(=O)O	2%	-16%
Cc1ccc(CCN2CC(C(=O)NCc3ccco3)CC2=O)cc1 (stereo not given)	1%	1%
CCN(C(=O)CSc1nc2cc(Cl)ccc2c(=O)n1Cc1ccco1)C1CCS(=O)(=O)C1 (stereo not given)	-6%	2%
C=CCN(C(=O)c1csnn1)C(C(=O)NCc1ccc(F)cc1)c1ccccc1F (stereo not given)	-11%	2%
CC12CCC(c3c(CO)nn(-c4ccccc4)c31)C2(C)C (stereo not given)	-7%	10%
CCOC(=O)c1ccc(Nc2nc3ccccc3n3c(C)nnc23)cc1	3%	nt
COc1ccccc1NS(=O)(=O)c1cccc(C(=O)NCC(C)(C)N2CCOCC2)c1	-7%	-1%
Cc1cc(NC(=O)c2ccc(F)cc2)n(CCOC(=O)c2ccc(F)cc2)n1	-12%	5%

Of the compounds above, ten have an aryl methoxy group.
SMILES	FEN1 inhibitor	N370S GC mod
COc1ccccc1N1CCN(C(=O)c2cc(-c3ccco3)on2)CC1	-10%	17%
COc1ccccc1C(=O)OCCN=C1NS(=O)(=O)c2ccccc21	2%	0%
COc1ccccc1N1CCN(C(=O)CSc2ccccc2)CC1	1%	-10%
COc1ccccc1Nc1ccc(S(=O)(=O)N2CCCCC2)cc1[N+](=O)[O-]	-1%	21%
COc1ccc(CCNC(=O)c2oc3ccc(OC)cc3c2C)cc1	0%	-9%
COc1ccccc1CNc1ncnc2c1nnn2Cc1ccccc1	-5%	7%
COc1ccc(-c2csc(N=C(N)N)n2)cc1	-9%	-2%
COc1ccc(NC(=O)CCNC(=O)c2ccco2)cc1S(=O)(=O)N(C)C	0%	-1%
COc1cccc(C(=O)Cn2c(=O)n(CCC(=O)NCC3CCCO3)c(=O)c3cc(OC)c(OC)cc32)c1 (stereo not given)	-4%	3%
COc1ccccc1NS(=O)(=O)c1cccc(C(=O)NCC(C)(C)N2CCOCC2)c1	-7%	-1%

Next part
SMILES	FEN1 inhibitor	N370S GC mod
CCC1SC2=NC(C)=C(C(=O)OCC(C)C)C(/C=C/c3ccccc3OC)N2C1=O (stereo not given)	-14%	28%
COc1ccc(-c2cc(C(F)(F)F)nc(-n3cc(Br)cn3)n2)cc1	-4%	3%
CCc1ccc(N2NC(=O)/C(=C/C=C/c3ccco3)C2=O)cc1	-16%	5%
NC(=O)COc1ccc(C(=O)NCC2(N3CCOCC3)CCCCC2)cc1	1%	nt
O=S(=O)(c1ccc(Cl)nc1)N1CCCCC1	-11%	-7%
COc1cc(OC)c(/C=N/NC(=O)c2ccncc2)cc1Br	4%	-5%
Cc1cccc(N(C)C(=O)c2cc(S(=O)(=O)N3CCCCC3)c[nH]2)c1	-4%&-10%	2%
C/C(=C\C=C\c1ccccc1)C(=O)c1c(C)cc(C)[nH]c1=O	-13%	-1%
Cc1ccc2c(c1)-c1c(cnn1CC(=O)N1CCCN(Cc3ccccc3F)C1)CO2	8%	4%
CCOCCCNS(=O)(=O)c1ccc(NC(=O)c2ccc([N+](=O)[O-])cc2Cl)cc1	-4%	-22%
O=C(NCc1ccccc1)N(Cc1cc2cc3c(cc2[nH]c1=O)OCCO3)CC1CCCO1 (stereo not given)	-2%	-7%
Cc1cc(O)c(C(c2ccccc2Cl)N2CCN(c3ccccc3)CC2)c(=O)n1Cc1ccco1 (stereo not given)	7%	nt
COc1ccc(Cl)cc1N(CC(=O)N1CCN(Cc2ccccc2)CC1)S(C)(=O)=O	-6%	1%
Cc1cccc(NC(=O)c2cc(S(=O)(=O)NCc3ccco3)ccc2F)c1C	-16%	12%
COc1ccc(CC(NC(C)=O)C(=O)NC2CCN(C(=O)Nc3ccc(C#N)cc3)CC2)cc1OC (stereo not given)	-6%	2%
Cc1ccc(CNC(=O)C2CCC(CNc3c(N4CCC(C)CC4)c(=O)c3=O)CC2)cc1 (stereo not given)	-16%	20%
Clc1ccc(OCCn2cnc(Cl)c2Cl)cc1	-4%	8%
Cc1cc(NC(=O)c2noc3c2CCCC3)nn1Cc1ccc(Cl)cc1	-25%	2%
COc1ccccc1N1CCN(C(=O)CCn2c(=O)[nH]c3ccccc3c2=O)CC1	-3%	4%
N#Cc1c(NC(=O)c2cccc(S(=O)(=O)Nc3ccc(C(=O)O)cc3)c2)sc2c1CCCC2	-2%	5%

Not a retest: entries from further up.
SMILES	FEN1 inhibitor	N370S GC mod
O=C(NCc1ccccc1)N(Cc1cc2cc3c(cc2[nH]c1=O)OCCO3)CC1CCCO1 (stereo not given)	-2%	-7%
Cc1cc(O)c(C(c2ccccc2Cl)N2CCN(c3ccccc3)CC2)c(=O)n1Cc1ccco1 (stereo not given)	7%	nt
COc1ccc(Cl)cc1N(CC(=O)N1CCN(Cc2ccccc2)CC1)S(C)(=O)=O	-6%	1%
Cc1cccc(NC(=O)c2cc(S(=O)(=O)NCc3ccco3)ccc2F)c1C	-16%	12%

Next section.
SMILES	FEN1 inhibitor	N370S GC mod
O=C(NCCSCc1ccco1)Nc1ccccc1	5%	6%
CCC1Oc2ccc(C)cc2N(CC(=O)NCCN2C(C)CCCC2C)C1=O (stereo not given)	-11%	-4%
O=C(CSc1nc2c([nH]c3ccccc32)c(=O)n1-c1cccc(Cl)c1)c1ccccc1	20%	nt
CC1(C)SC(=S)N(Cc2ccc3c(c2)OCO3)C1N(O)C(=O)NC1CCCCC1 (stereo not given)	-19%	0%
Cc1ccc(F)cc1NC(=O)COC(=O)c1ccc2ncsc2c1	-17%	nt
O=C(CN1C(=O)NC2(CCCC2)C1=O)Nc1nc(-c2ccccc2)cs1	1%	3%
CCn1c(SCC(=O)Nc2cc(C)on2)nc2c(c1=O)SCC2	1%	-22%
NC(=O)CN1C(=O)NC2(CCOc3ccccc32)C1=O (stereo not given)	-7%	-13%
COc1ccc(-n2ncc(C(C)NS(=O)(=O)c3cc(F)ccc3C)c2C)cc1 (stereo not given)	1%	3%
CC1(C)CC(=O)C2=C(C1)NC(=O)CC2C(=O)NCc1ccc(F)cc1 (stereo not given)	nt	-3%

Four compounds picked at random from those above:
SMILES	FEN1 inhibitor	N370S GC mod
Cc1ccc2c(c1)-c1c(cnn1CC(=O)N1CCCN(Cc3ccccc3F)C1)CO2	8%	4%
COc1ccccc1Nc1ccc(S(=O)(=O)N2CCCCC2)cc1[N+](=O)[O-]	-1%	21%
COc1ccc(CC(NC(C)=O)C(=O)NC2CCN(C(=O)Nc3ccc(C#N)cc3)CC2)cc1OC (stereo not given)	-6%	2%
Cc1ccc(S(=O)(=O)Nn2c(C)ccc2C)cc1	-8%	-20%

(more compounds)
SMILES	FEN1 inhibitor	N370S GC mod
CCOc1ccc(-c2cc(CCCC(=O)NCCc3ccc(SC)cc3)no2)cc1	-8%	nt
Cc1cc(C)c2c(CC(=O)NC3CCS(=O)(=O)C3)coc2c1 (stereo not given)	-1%	-11%
Cc1cc(-c2nnc(SCc3cccnc3)o2)no1	-3%	7%
Cc1cccc(NC(=O)c2cc(S(=O)(=O)c3ccccc3)ccc2Cl)c1	-12%	24%

Compound activity deposited in PubChem BioAssay by National Center for Advancing Translational Sciences (NCATS).

These rows are one share of the data, and most or all hits are left out here.
